# Lassa entry inh: blocks Lassa virus binding to or entry into cells; Lassa virus pseudotype entry inhibition, cell reporter; control for the full effect not named in the record; Potency, µM (top dose mostly 37.9 µM), for the others: at the top dose activity change, negative = inhibition, most hits filed as inhibitors; AID 540256; actives 1.2% (n = 300,000); active means well fitted inhibition curve with a large enough effect; inconclusive means small, poorly fitted or top-dose-only effect, or effect the other way; inactive means flat fitted curve, though single readings scatter; tested in HEK293 cells; further: on the % scale 0 is the no-effect control and ±100 the full control effect; nearly all actives have a fitted effect of over 50% in size; luciferase read-out
# Cruzain noTriton: inhibitors of Trypanosoma cruzi cruzain without detergent; P25779; Potency, µM, inactives show max response, negative = inhibition, actives largely listed as inhibitors; actives 2.3% (n = 200,000); AID 1476; purified cruzain, Z-FR-AMC fluorescence, no detergent;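 further: plate controls were enzyme without inhibitor for no effect and buffer without enzyme for full effect; nearly all actives have a fitted effect of over 40% in size; top concentration of the series not given in the record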
# Target sequence (P25779 123-467 limits assumed): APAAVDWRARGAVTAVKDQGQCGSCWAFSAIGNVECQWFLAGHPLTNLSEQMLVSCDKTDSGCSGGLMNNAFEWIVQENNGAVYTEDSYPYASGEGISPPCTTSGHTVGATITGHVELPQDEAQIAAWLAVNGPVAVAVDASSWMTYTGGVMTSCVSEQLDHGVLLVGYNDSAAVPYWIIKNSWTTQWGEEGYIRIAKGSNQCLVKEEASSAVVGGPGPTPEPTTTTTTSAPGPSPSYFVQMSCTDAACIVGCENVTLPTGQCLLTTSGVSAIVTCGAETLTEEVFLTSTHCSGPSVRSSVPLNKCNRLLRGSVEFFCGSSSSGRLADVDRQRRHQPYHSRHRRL
#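 Purified cruzain at 1.5 nM, pre-incubated 15 min with compound at room temperature in 100 mM sodium acetate pH 5.5, 5 mM DTT, 0.00005% Triton X-100. Reaction started with 2 uM Z-FR-AMC; AMC fluorescence increase over 60 s gives rate.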
# 2A StopGo: FMDV 2A StopGo reporter, luciferase signal. Potency, µM (doses to about 57.9 µM), without a hit: top-dose signal change, negative = less light. human cells with a luciferase reporter of 2A StopGo recoding; control for the full effect not named in the record. actives 1.2% (n = 410,000). AID 1159524; active = well fitted falling curve with a large enough effect; inconclusive = small, poorly fitted or top-dose-only effect; inactive = no such curve, though single readings can be large or run the other way; tested in HEK293T cells; further: on the % scale 0 is the no-effect control and ±100 the full control effect; nearly all actives have a fitted effect of over 45% in size; luciferase light after 4 h
# SARS PLP yeast: SARS-CoV PLP inhibition in yeast; actives 0.19% (n = 330,000); S. cerevisiae expressing SARS-CoV PLpro, growth rescue; control for the full effect not named in the record; Potency, µM (titrated, usually from 32.9 µM), for inactives: at the highest dose activity, positive = growth rescue; active means well fitted rising curve with a large enough effect; inconclusive means small, poorly fitted or top-dose-only effect; inactive means no such curve, though single readings can be large or run the other way; further: 0% is about no effect; nearly all actives have a fitted effect of over 55% in size; growth read by luminescence after 48 h
# Cruzain Triton: cruzain (T. cruzi) inhibition with detergent | purified cruzain, Z-FR-AMC fluorescence, 0.01% Triton | Potency, µM, without a hit: max response, negative = inhibition, hits mostly inhibitors | actives 0.43% (n = 200,000) | AID 1478;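 further: plate controls were neutral wells for no effect and buffer without enzyme for full effect; nearly all actives have a fitted effect of over 40% in size; top concentration of the series not given in the record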
#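 Cysteine protease activity tested under reducing, mildly acidic conditions (100 mM sodium acetate pH 5.5, 5 mM DTT) plus 0.01% Triton X-100. Cruzain 1.5 nM; substrate Z-FR-AMC 2 uM; 15 min compound preincubation at room temperature.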
# RE007 growth inh: less growth of the S. pombe RE007 Vpr strain; S. pombe RE007 Vpr strain, BacTiter-Glo ATP luminescence, 24 h; control for the full effect not named in the record; Potency, µM (highest dose often 92.2 µM), without a hit: top-dose activity change, negative = less growth; actives 0.21% (n = 360,000); active = well fitted falling curve with a large enough effect; inconclusive = small, poorly fitted or top-dose-only effect; inactive = no such curve, though single readings can be large or run the other way;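 further: on the % scale 0 is the no-effect control and ±100 the full control effect; nearly all actives have a fitted effect of over 50% in size; the assay follows cell death caused by Vpr and the record does not say whether a fall means rescue or toxicity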
#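 Fission yeast strain RE007, carrying one chromosomally integrated HIV-1 vpr copy, was seeded at OD 0.01 in PMG+AL medium with 23 nL pinned compound. After 24 h at 30 °C and 99% humidity, viability was read by BacTiter-Glo luminescence.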
# MARV entry inh: Marburg virus entry inhibition | Marburg virus pseudotyped entry inhibition, cell reporter; control for the full effect not named in the record; about a third of the inactives were read at about 46 µM | AID 540276 | actives 1.8% (n = 300,000) | Potency, µM (doses to about 37.8 µM), inactives show top-dose activity change, negative = inhibition, usual class: inhibitors; active = well fitted inhibition curve with a large enough effect; inconclusive = small, poorly fitted or top-dose-only effect, or effect the other way; inactive = flat fitted curve, though single readings scatter; tested in HEK293 cells; about a fifth of its hits are not listed in these tables; further: on the % scale 0 is the no-effect control and ±100 the full control effect; luciferase read-out
# NS1 inh: influenza NS1 inhibition; S. cerevisiae slowed by influenza A NS1, growth recovery by OD600; Potency, µM (series often up to 46.1 µM), inactives show top-dose activity, positive = more growth; actives 0.4% (n = 270,000); active means well fitted rising curve with a large enough effect; inconclusive means small, poorly fitted or top-dose-only effect; inactive means no such curve, though single readings can be large or run the other way; further: nearly all actives have a fitted effect of over 50% in size
#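 In this qHTS, NS1 from influenza A is expressed in budding yeast, where it slows growth. Cells are switched from glucose to 2% galactose medium (pH 6.0, -URA), treated with compound, and growth recovery is read at OD600.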
# Active calls of the source: *; ? = inconclusive; . = not tested or not shown; & = joins results of further samples; [ ] = remark or other dose. Unless noted, the call rests on the fitted dose curve; in most records, active means well fitted curve in the direction sought with a large enough effect; inconclusive means small, poorly fitted or top-dose-only effect, or another doubt; inactive means no such curve, though single readings can be large; an effect the other way counts as inactive or inconclusive. Potency means the concentration at half of the fitted maximal effect.
(1) COc1cccc(-c2nnn(C/C(N)=N/O)n2)c1
(2) O=C(NC1CCCCC1)c1csnn1
(3) O=C(NCc1ccccn1)c1cc(S(=O)(=O)N2CCN(c3ccccc3)CC2)ccc1Cl
(4) CCCC(=O)Nc1ccc(Cl)c(NC(=S)NC(=O)c2ccco2)c1
(5) Cc1scc(C(=O)N/N=C/c2ccsc2)c1C
(6) O=C(NCCS(=O)(=O)N1CCN(c2ccccc2F)CC1)C1CC(=O)N(c2ccc(F)cc2)C1 (stereo not drawn)
(7) COC(=O)c1cc(N=CC2=C(O)CC(C)(C)CC2=O)cc(C(=O)OC)c1
(8) CC(=O)Nc1ccc2c(CSc3nncs3)cc(=O)oc2c1
(9) Cc1ccc(CN2CCCn3nc(C(=O)NCc4ccccc4Cl)cc3C2=O)cc1
(10) CC1CCN(c2ncnc3c2cnn3Cc2ccc(Cl)cc2)CC1
Compound,1,2,3,4,5,6,7,8,9,10
Lassa entry inh,22%,?,26%,-9%,?,2%[46.1 µM],11%,6%,?,17%
Cruzain noTriton,5%,.,6%,1%,-5%,2%,-3%,.,13%,0%
2A StopGo,42%[activator],5%,-15%,-30%,-19%,-10%&4%,-21%,-19%,-14%,-26%
SARS PLP yeast,-5%,.,-2%,14%,-14%,10%,3%,-1%,.,-7%
Cruzain Triton,-1.0%,.,2.4%,-18%,-3.4%,3.9%,-0.3%,.,-6.3%,-3.6%
RE007 growth inh,17%,-7%,-22%,-1%,46%,-10%,-1%,3%,.,-7%
MARV entry inh,?,26%,-22%&-22%,-13%,?,.,-19%,-15%[46.1 µM],.,?
NS1 inh,11%,.,-14%,5%,-8%,17%,4%,1%,.,-52%

(11) CNc1nc(C)cc(C)c1S(=O)(=O)c1ccc(C)cc1
(12) Cc1cc(OCC(=O)Nc2cccnc2)c2c(C)c(C)c(=O)oc2c1
(13) O=C(Cc1ccc(Nc2nc3ccc(Br)cc3[nH]2)cc1)NCCc1cccs1
(14) O=C(c1cc(C2CC2)on1)N1CCCC(N2CCN(c3cccc(C(F)(F)F)c3)CC2)C1 (stereo not drawn)
(15) Cc1ccc(N2CC(C(=O)NCC3CCCO3)CC2=O)cc1Cl (stereo not drawn)
(16) N=C(N)SCc1ccccc1Cl
(17) COc1ccc(CC(=O)OCC(=O)Nc2cc(Cl)ccc2C)cc1
(18) CCCNC(=O)Cn1cnc2sc(C(=O)N3CCN(CCC)CC3)c(C)c2c1=O
(19) CC1(C)CC(=O)c2cc(OCC(=O)N3CCN(c4ccccc4F)CC3)ccc2O1
(20) S=C(Nc1ccccc1Cl)N1CCN(Cc2ccccc2)CC1
Compound,11,12,13,14,15,16,17,18,19,20
Lassa entry inh,-3%,.,.,?,10%,-8%,4%[46.1 µM],-14%,-28%,7%
Cruzain noTriton,-7%,.,-6%,.,6%,-27%,.,-3%,-10%,7%
2A StopGo,0%,-6%,?,?,5%,?,-4%,-2%,.,-23%
SARS PLP yeast,-2%,5%,-2%,?,-6%,-20%,-5%,3%,8%,0%
Cruzain Triton,-1.8%,.,-16%,.,16%,-0.8%,.,0.3%,-0.3%,-0.1%
RE007 growth inh,-3%,5%,0%,-13%,14%,-4%,-2%,-9%,?,-10%
MARV entry inh,?,.,.,?,19%,8.2µM*,-1%[46.1 µM],5%,-1%&23%,3%
NS1 inh,-17%,1%,1%,-22%,3%,-10%,.,7%,-30%,0%

(21) O=C(C1COc2ccccc2O1)N1CCN(c2nc3ccccc3s2)CC1 (stereo not drawn)
(22) c1ccc2c(c1)ccc1ccccc12
(23) Cc1ccc(NC(=S)NC2CCCC2)cc1
(24) CCCCc1nc2sc3c(=O)[nH]cnc3c2c2c1CCCC2
(25) COc1cc(C2NC(=O)NC(C)=C2C(=O)OCC2CCCCC2)cc(Cl)c1O (stereo not drawn)
(26) O=C(CN1CCN(S(=O)(=O)c2ccccc2)CC1)NCCc1ccccc1
(27) Cc1ccc(NC(=O)N[C@@H](CC(C)C)C(=O)O)c(C)c1
(28) O=C(Cn1ccc([N+](=O)[O-])n1)c1ccccc1
(29) COc1ccc(NC(=O)CN(C)C(=O)c2cccc(S(=O)(=O)Nc3ccc(OC)cc3)c2)cc1
(30) Cc1cccn2c(NCC3CCCO3)c(C(C)C)nc12 (stereo not drawn)
Compound,21,22,23,24,25,26,27,28,29,30
Lassa entry inh,3%,.,-27%,1%[46.1 µM],.,?,23%[46.1 µM],4%,7%,10%
Cruzain noTriton,.,-5%,-6%,.,.,.,.,.,.,-1%
2A StopGo,-2%,2%,77%[activator],-6%,-25%,-24%,-14%,-26%,14%,-1%
SARS PLP yeast,-11%,3%,12%,0%,-5%,2%,0%,2%,10%,7%
Cruzain Triton,.,-2.8%,0.2%,.,.,.,.,.,.,-3.8%
RE007 growth inh,-1%,2%,-15%,-7%,14%,-5%,-7%,-28%,-18%,2%
MARV entry inh,25%,.,22%,3%[46.1 µM],.,0%,-12%[46.1 µM],-1%,2%,1%
NS1 inh,-16%,.,-31%,-3%,24%,8%,4%,5%,.,-7%

# Record cards, as listed above.
# Record of `c1ccc2c(c1)ccc1ccccc12` : Lassa entry inh: .; Cruzain noTriton: -5%; 2A StopGo: 2%; SARS PLP yeast: 3%; Cruzain Triton: -2.8%; RE007 growth inh: 2%; MARV entry inh: .; NS1 inh: .
# Record of `Cc1ccc(N2CC(C(=O)NCC3CCCO3)CC2=O)cc1Cl` (stereo not drawn) : Lassa entry inh: 10%; Cruzain noTriton: 6%; 2A StopGo: 5%; SARS PLP yeast: -6%; Cruzain Triton: 16%; RE007 growth inh: 14%; MARV entry inh: 19%; NS1 inh: 3%

# Next structures.
(31) CCOc1ccccc1OCCOc1ccccc1CC
(32) C=CC1CN2CCC1CC2C(OC(C)=O)c1ccnc2ccc(OC)cc12 (stereo not drawn)
(33) CC(Sc1nncn1C)C(=O)Nc1ccc(S(N)(=O)=O)cc1 (stereo not drawn)
(34) O=C(Nc1ccc(C(=O)O)cc1)/C(=C\C=C\c1ccccc1)NC(=O)c1ccccc1Br
(35) CC(C)N(C(=O)CSc1nnnn1C1CCCC1)C(C)C
(36) C=C(C)Cn1c(CNC(C)=O)nc2ccccc21
(37) Cc1cc(=O)oc2cc(OCCSCCN3CCCCC3)ccc12
(38) O=C(CNC(=O)c1ccc(Br)cc1)NCC(=O)OCC(=O)c1ccc([N+](=O)[O-])cc1
(39) CC1(CCC#N)N=C(SCCC#N)N(c2ccccc2)C1=O (stereo not drawn)
(40) COc1ccc(C(CNC(=O)COc2ccccc2OC)N2CCCCC2)cc1 (stereo not drawn)
Compound,31,32,33,34,35,36,37,38,39,40
Lassa entry inh,-14%,4%,.,?,-1%,.,.,4%,6%,.
Cruzain noTriton,-9%,.,.,.,2%,11%,.,0%,-4%,.
2A StopGo,0%,-12%,-27%,11%,1%,-23%,7%,-19%,13%,-12%
SARS PLP yeast,5%,0%,-2%,1%,8%,-27%,1%,-19%,0%,0%
Cruzain Triton,-4.3%,.,.,.,1.6%,-1.1%,.,-5.4%,6.0%,.
RE007 growth inh,-20%,1%,-9%,9%,13%,-1%,-13%,10%,-3%,-4%
MARV entry inh,-20%[46.1 µM],-22%,.,-10%,2%,.,.,6%,5%,.
NS1 inh,-5%,-9%,8%,24%,?,0%,4%,-8%,-7%,-9%

# The listing continues.
# Letter code – A = Lassa entry inh; B = Cruzain noTriton; C = 2A StopGo; D = SARS PLP yeast; E = Cruzain Triton; F = RE007 growth inh; G = MARV entry inh; H = NS1 inh
41) O=C(Nc1cccc(O)c1)c1c(O)c2ccccc2[nH]c1=O
  A: . | B: . | C: 39%[activator] | D: 3% | E: . | F: -1% | G: . | H: ?
42) COc1ccccc1NC(=O)COC(=O)Cc1ccc(S(=O)(=O)N2CCCCC2)s1
  A: -14% | B: . | C: -2% | D: 0% | E: . | F: 3% | G: 1%[46.1 µM] | H: .
43) CC(=O)c1ccc(N2CCN(C(=O)c3cccs3)C(C)C2)c(F)c1 (stereo not drawn)
  A: . | B: . | C: -14% | D: 2% | E: . | F: -17% | G: . | H: -9%
44) CCOc1cccc(C(=O)Nc2ccccc2C(=O)N2CCOCC2)c1
  A: 14% | B: . | C: -10% | D: -4% | E: . | F: 4% | G: 25% | H: 12%
45) Cc1cc(C)n2c(SCC(=O)Nc3ncc(C(F)(F)F)cc3Cl)nnc2n1
  A: 5% | B: -6% | C: 6% | D: -1% | E: 3.1% | F: 21% | G: -9%[46.1 µM] | H: -4%
46) Cc1ccc(S(=O)(=O)N(C)c2ccc(OC(C)C(=O)N(C)c3ccccc3)cc2)cc1 (stereo not drawn)
  A: ? | B: . | C: -23% | D: -4% | E: . | F: 0% | G: -29% | H: .
47) O=C(c1ccccc1SCc1ccccc1)N1CCOCC1
  A: 1% | B: . | C: 6% | D: 0% | E: . | F: -4% | G: -16% | H: 0%
48) O=C(NCCN1CCN(S(=O)(=O)c2ccc(F)cc2)CC1)C(=O)NCc1ccccc1
  A: -5%[46.1 µM] | B: . | C: -6% | D: 1% | E: . | F: 11% | G: 3%[46.1 µM] | H: 12%

# Given as tab-separated lines: five of the compounds above
entry	smiles	Lassa entry inh	Cruzain noTriton	2A StopGo	SARS PLP yeast	Cruzain Triton	RE007 growth inh	MARV entry inh	NS1 inh
43	CC(=O)c1ccc(N2CCN(C(=O)c3cccs3)C(C)C2)c(F)c1 (stereo not drawn)	.	.	-14%	2%	.	-17%	.	-9%
44	CCOc1cccc(C(=O)Nc2ccccc2C(=O)N2CCOCC2)c1	14%	.	-10%	-4%	.	4%	25%	12%
45	Cc1cc(C)n2c(SCC(=O)Nc3ncc(C(F)(F)F)cc3Cl)nnc2n1	5%	-6%	6%	-1%	3.1%	21%	-9%[46.1 µM]	-4%
46	Cc1ccc(S(=O)(=O)N(C)c2ccc(OC(C)C(=O)N(C)c3ccccc3)cc2)cc1 (stereo not drawn)	?	.	-23%	-4%	.	0%	-29%	.
47	O=C(c1ccccc1SCc1ccccc1)N1CCOCC1	1%	.	6%	0%	.	-4%	-16%	0%

# Screening data as filed in PubChem.
